# Choline anaer gr = inhibitors of anaerobic choline-dependent gram-negative bacterial growth | 55,000 compounds, 0.2% hits | Gram-negative bacterium anaerobic choline minimal medium, absorbance growth; active compounds read low; many inactives read as strong as hits in the columns shown | calls only;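 active = growth z-score on choline under -2 at 7 or 20 h with little or no fall on glycerol, limits in tiers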;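 also: stock transfer was 300 nL into about 50 µL; the organism is E. coli; final concentration not given here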
# Choline anaer gr early = also measured in Choline anaer gr; calls as there; z-score; measured here: choline growth z-score, timepoint 1;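 score of optical density at 7 h as mean of two plates; lower means less growth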
# An asterisk follows results filed as active; i = inactive; & = joins results of further samples. An excerpt. The share of hits here may be higher or lower than overall.
Choline anaer gr early,Choline anaer gr,mol
0.46,i,O=C(c1nc(-c2ccccc2)n(-c2cccc(Cl)c2)n1)N1CCCC1
-0.31,i,CN1C(=O)C2CCCCN2c2ccc(C(=O)NCCc3c[nH]c4ccc(Cl)cc34)cc21 (stereo unspecified)
-1,i,Cc1ccc(C(=O)OCc2cc(=O)n3oc(C)cc3n2)cc1
0.93,i,Cc1ccc(NC(=O)C(C)Sc2nc3c(c(=O)[nH]2)CCCC3)cc1 (stereo unspecified)
0.17,i,COc1cc2c(=O)n(Cc3ccc(C(=O)NC4CC4)cc3)c(=O)n(CC(=O)NCc3ccccc3)c2cc1OC
1,i,Cc1ccc(C2=NS(=O)(=O)N(C)C(C(=O)Nc3cc(C)ccc3O)=C2)cc1
-0.57,i,CC1CCCN(Cc2nc(-c3ccc(N4CCOCC4)nc3)no2)C1 (stereo unspecified)
0.81,i,Cc1noc2ncn(CC(=O)N3CCN(c4ccc(F)cc4)CC3)c(=O)c12
1.1,i,COc1ccc(NS(=O)(=O)c2ccc3c(c2)NC(=O)CS3)c(OC)c1
1.3,i,CCCSc1nc2c(c(=O)[nH]1)C(c1cccc(F)c1)C(C(=O)OC)=C(C)N2 (stereo unspecified)
0.86,i,COc1cccc(CN2CCCC2c2cc(C)on2)c1O (stereo unspecified)
0.65,i,Cn1ccc2cc(S(=O)(=O)N3CCN(C(=O)Nc4ccc(F)cc4F)CC3)ccc21
-0.54,i,c1cn(-c2cc(NC3CCCC3)ncn2)cn1
0.6,i,O=c1c2ccccc2n2c(-c3ccc(Cl)cc3)nnc2n1Cc1ccccc1
-0.52,i,O=C(NCc1ccccc1)N1CCC(NS(=O)(=O)c2ccc(Cl)cc2)CC1
0.2,i,Cc1ccc(-c2nc3ccccc3c3nnc(SCC(=O)NC(C(N)=O)c4ccccc4)n23)cc1 (stereo unspecified)
-0.54,i,Clc1cccc(-c2noc3ncnc(NCC4CCCO4)c23)c1 (stereo unspecified)
1.5,i,CC1CCN(c2ccc(-c3noc(CCC(=O)N4CCN(c5ncccn5)CC4)n3)cc2)CC1
1.4,i,Cc1cc(C)nc(NC(c2cccc(F)c2)c2c(NC(=O)c3ccccc3)sc(C)c2C)n1 (stereo unspecified)
0.97,i,Cn1cc(-c2nc(-c3ccncc3)no2)c(=O)c2cc(F)ccc21
1.4,i,CC(C)OC(=O)CCC/C=C\C[C@@H]1[C@@H](/C=C/C(=O)COc2cccc(C(F)(F)F)c2)[C@H](O)C[C@@H]1O
-0.13,i,Cc1cc(C(F)(F)F)nn1CC(=O)N1CCCC1c1cc(C(C)C)no1 (stereo unspecified)
0.6,i,Cc1cccc(Cn2cccc2CNS(=O)(=O)c2cnn(C(F)F)c2C)c1
-0.6,i,Cc1cc2nc(COc3ccc(NC(=O)CCC4CCCC4)cc3)cc(=O)n2o1
-0.11,i,CCOc1ccccc1NC(=O)c1nn(-c2ccc(OC)cc2)c(=O)n(C)c1=O

# 14 entries already listed, sorted by length of the SMILES, high to low:
Choline anaer gr early,Choline anaer gr,mol
1.4,i,CC(C)OC(=O)CCC/C=C\C[C@@H]1[C@@H](/C=C/C(=O)COc2cccc(C(F)(F)F)c2)[C@H](O)C[C@@H]1O
0.17,i,COc1cc2c(=O)n(Cc3ccc(C(=O)NC4CC4)cc3)c(=O)n(CC(=O)NCc3ccccc3)c2cc1OC
0.2,i,Cc1ccc(-c2nc3ccccc3c3nnc(SCC(=O)NC(C(N)=O)c4ccccc4)n23)cc1 (stereo unspecified)
1.4,i,Cc1cc(C)nc(NC(c2cccc(F)c2)c2c(NC(=O)c3ccccc3)sc(C)c2C)n1 (stereo unspecified)
1.3,i,CCCSc1nc2c(c(=O)[nH]1)C(c1cccc(F)c1)C(C(=O)OC)=C(C)N2 (stereo unspecified)
1,i,Cc1ccc(C2=NS(=O)(=O)N(C)C(C(=O)Nc3cc(C)ccc3O)=C2)cc1
-0.11,i,CCOc1ccccc1NC(=O)c1nn(-c2ccc(OC)cc2)c(=O)n(C)c1=O
-0.6,i,Cc1cc2nc(COc3ccc(NC(=O)CCC4CCCC4)cc3)cc(=O)n2o1
1.1,i,COc1ccc(NS(=O)(=O)c2ccc3c(c2)NC(=O)CS3)c(OC)c1
0.6,i,Cc1cccc(Cn2cccc2CNS(=O)(=O)c2cnn(C(F)F)c2C)c1
-1,i,Cc1ccc(C(=O)OCc2cc(=O)n3oc(C)cc3n2)cc1
-0.54,i,Clc1cccc(-c2noc3ncnc(NCC4CCCO4)c23)c1 (stereo unspecified)
0.86,i,COc1cccc(CN2CCCC2c2cc(C)on2)c1O (stereo unspecified)
-0.54,i,c1cn(-c2cc(NC3CCCC3)ncn2)cn1

# Next part.
Choline anaer gr early,Choline anaer gr,mol
-0.35,i,O=C(NCc1ccc(F)cc1)c1cc2n(n1)CCCN(Cc1ccc(F)cc1)C2=O
0.47,i,COc1cc(NC(=O)C(C)S(=O)(=O)c2ccc3c(c2)S(=O)(=O)N=CN3)cc(OC)c1 (stereo unspecified)
0.05,i,Cn1nc(C(=O)NCc2ccccc2)c2c1CCN(C(=O)c1cccc(F)c1)C2
-0.65,i,COc1ccc(CCNC(=O)C2CCN(c3ncnc4c3oc3ccccc34)CC2)cc1OC
1.2,i,COC(=O)C1=C(C)NC(C)=C([N+](=O)[O-])[C@H]1c1ccccc1C(F)(F)F
-0.18,i,Cc1cc(Nc2ccc(C(C)C)cc2)nc(-n2nc(C)cc2C)n1
-0.01,i,CC1CCN(C(=O)c2cc3c(s2)CCC(C(=O)N2CCN(C)CC2)C3)CC1 (stereo unspecified)
-0.54,i,Cc1ccc(Nc2nc(C)cc(=O)[nH]2)c(C)c1
0,i,COc1ccc(S(=O)(=O)N(C(=O)c2ccccc2C)c2ccc3oc(=O)sc3c2)cc1OC
0.2,i,CC(C)CNC(=O)c1cccc(-c2cc(N3CCCC3)ncn2)c1
0.28,i,CCNC(=O)N1CCNC(=O)C1
1.2,i,Brc1ccc(-c2nc(-c3ccc4nncn4c3)no2)cc1
1.7,i,Cc1cccc(-c2noc(-c3cccnc3NC(C)c3ccccc3)n2)c1 (stereo unspecified)
0.25,i,CCC(C)(C)NS(=O)(=O)c1cc(C(=O)N2CCC(C)CC2)cs1
-0.32,i,O=C(CN1C(=O)CSc2ccc(C(=O)N3CCCC3)cc21)Nc1nc2ccccc2s1
0.6,i,O=S1(=O)CCC(S(=O)(=O)N2CCCC2)C1 (stereo unspecified)
-0.9,i,CC(C)c1ccc(NC(=O)Cn2cnc3c2c(=O)n(C)c(=O)n3C)cc1
0.78,i,Cc1ccc(NC(=O)Nc2ccc3c(c2)N(C)C(=O)CS3)cc1C
0.31,i,Cc1c(C)n(Cc2cccnc2)c2ncn3nc(-c4ccc(C(C)(C)C)cc4)nc3c12
0.94,i,O=C(NC1CCCC1)c1ccc2c(=O)n(CC3CCCO3)c(SCc3ccccc3F)nc2c1 (stereo unspecified)
-0.41,i,CCC(=O)Nc1cccnc1-c1ccc(C(=O)Nc2ccc(OC)cc2OC)cc1
0.09,i,O=C(c1ccccc1)N1CCC(c2nc3ccccc3o2)CC1
0.44,i,Cc1ccc(-c2nc(S(=O)(=O)c3ccc(C)cc3)c(NCc3ccc4c(c3)OCO4)o2)cc1
0.77,i,CCCOc1ccc(C(=O)Nc2cc3c(cc2SC2CCCCC2)n(C)c(=O)n3C)cc1
-0.88,i,CN(C)S(=O)(=O)c1ccc(-c2nc(C#N)c(NCc3ccc4c(c3)OCO4)o2)cc1
-0.15,i,O=C(CCn1c(=O)[nH]c2cc(S(=O)(=O)N3CCCCC3)ccc21)NC1CCCC1
-1.3,i,Cc1ccc(-c2noc(C(=O)NCc3cccnc3)n2)cc1S(=O)(=O)N1CCCCC1
0.28,i,Cc1cccc(Nc2cc(C)nc(-n3nc(C)cc3C)n2)c1
-0.99,i,Cc1cccc(C(=O)Nc2ccccc2SCc2cc(=O)n3[nH]cnc3n2)c1
-1.6,i,Cc1[nH]c(C)c(S(=O)(=O)N2CCC(C(=O)N3CCCCC3)CC2)c1C(=O)N1CCCCC1
1.4,i,O=C(NCCCN1CCC(N2CCCCC2)CC1)C1=Cc2sc3c(c2CS1)CCCC3
-0.3,i,COC(=O)c1cc(S(=O)(=O)N(C)CC(=O)NC2CCCCC2)cn1C
0.85,i,COc1ccc(N2C(=O)c3cc4ccccc4n3CC2(C)C(=O)NC2CCCCC2)cc1OC (stereo unspecified)
-0.57,i,O=C(NCc1ccc(-c2noc(-c3n[nH]c4c3CCCC4)n2)s1)C1CC1
-0.66,i,O=C(C1CCCN(c2ccc3cc(S(=O)(=O)N4CCCCC4)ccc3n2)C1)N1CCCCC1 (stereo unspecified)
-0.09,i,CCOC(=O)c1ccc(NC(=O)Cn2nc(C(=O)Nc3ccccc3)ccc2=O)cc1
-0.06,i,Cc1ccccc1C(=O)N1CCC(c2nc3ccccc3s2)CC1
0.78,i,CCC(C)NC(=O)c1nnc(-c2oc3ccc(C)cc3c2C)o1 (stereo unspecified)
0.06,i,COc1cc(-c2ccccc2)nc2ccc(NC(=O)NC3CCCCC3)cc12
-1.3,i,Cc1nc(C)c(C(=O)Nc2ccccc2Cl)s1
0.06,i,O=C(O)CCCC(=O)Nc1nc2n(n1)C(c1ccc(Cl)cc1)C=C(c1ccc(Cl)cc1)N2 (stereo unspecified)
-1,i,Cc1c(NC(=O)c2ccc(S(N)(=O)=O)cc2)cccc1-c1nc2cccnc2s1
0.26,i,COc1ccc2c(c1)NC1(CCN(C(=O)CCC3CCCC3)CC1)c1cccn1-2
1.1,i,O=C1CC(c2ccsc2)c2c(-c3ccccc3)nn(-c3ccccc3)c2N1 (stereo unspecified)
0.78,i,CCCn1c(C)ccc(-c2noc(CCCC(=O)Nc3ccc(C)cc3C)n2)c1=O
-1.9,i,O=C(CC1CCCC1)N1CC(OCc2ccc(F)cc2)C1
-0.24,i,O=C(Nc1cccc(F)c1)c1nnc(C2CCCN2C(=O)C2CC2)s1 (stereo unspecified)
0.27,i,CCOC(=O)c1c(NC(=O)c2cnccn2)sc(C(N)=O)c1C
-0.57,i,CC(NC(=O)c1ccc(F)cc1)c1ccc2c(c1)OCCCO2 (stereo unspecified)
0.34,i,CCCCCNC(=O)CCc1nnc2c3cc(-c4ccc(C)c(C)c4)nn3ccn12

# Further results
Choline anaer gr early,Choline anaer gr,mol
0.24,i,COC1=C2C[C@@H](C)C[C@H](OC)[C@H](O)[C@@H](C)/C=C(\C)[C@H](OC(N)=O)[C@@H](OC)/C=C\C=C(/C)C(=O)NC(=CC1=O)C2=O
-0.67&0.74,i,Nc1ccc(S(=O)(=O)Nc2ncccn2)cc1
-0.75,i,COc1ccc(-c2noc(-c3cc(C4CC4)[nH]n3)n2)c(OC)c1
-0.71,i,CCN1CCN(CCNC(=O)C2CCCN(C(=O)c3[nH]c(C)c(C(=O)OC)c3C)C2)CC1 (stereo unspecified)
-0.74,i,Cc1csc(-c2cc(S(=O)(=O)N3CCCC3)c(C)n2C)n1
-0.34,i,Cc1cc(OC(C)C(=O)N2CCOCC2)nc2c1c(C)nn2-c1ccccc1 (stereo unspecified)
-0.85,i,CC(C)(C)C1CCc2c(sc3nc(CCC(=O)N4CCN(C5CCCCC5)CC4)[nH]c(=O)c23)C1 (stereo unspecified)
0,i,Cc1ccc2[nH]cc(CCNC(=O)CSCc3nnc(C(=O)Nc4ccccc4C)s3)c2c1
-0.26,i,Cn1c(=O)c2nc(SCC(=O)Nc3cccc(Br)c3)n(C)c2n(C)c1=O
-0.38,i,COc1cccc(C(=O)N2CCC(N3CCN(Cc4ccccc4)C(=O)C3=O)CC2)c1
0.58,i,Cc1cc(C(=O)CSc2nc(=O)n(C3CCS(=O)(=O)C3)c3c2CCC3)ccc1F (stereo unspecified)
-0.43,i,CC(O)=C(C#N)C(=O)Nc1ccc(C(F)(F)F)cc1
-0.19,i,Cc1nc(CN2C(=O)COc3cc(S(=O)(=O)NC4CC4)c(Cl)cc32)no1
-1,i,CCn1cccc1-c1nc(C)c(C(=O)Nc2ccc(C)c(C)c2)s1
0.19,i,CC1(C(=O)NC2CCCCC2)Cc2ccccc2C(=O)N1Cc1cccnc1 (stereo unspecified)
-0.22,i,Cc1noc2c1C(C(C)C)C1=C(CC(C)(C)CC1=O)N2 (stereo unspecified)
0.09,i,Cc1ccc(-n2nc(N3CCN(C(=O)CN4C(=O)C(C)Oc5ccccc54)CC3)ccc2=O)cc1C (stereo unspecified)
-0.03,i,CCn1c(SCc2nc(-c3ccccc3)no2)nc2cc3c(cc2c1=O)OCO3
0.49,i,COc1ccc(N2C(=O)c3cc4occc4n3CC2(C)C(=O)NC2CCCCC2)cc1Cl (stereo unspecified)
0.52,i,Cc1ccc(NCc2cc(=O)n3[nH]c(-c4ccc(C(C)(C)C)cc4)nc3n2)cc1C
-1.2,i,O=C(c1noc2c1COc1ccccc1-2)N1CCC(Cc2ccccc2)CC1
0.32,i,Cc1cc(NC(C)C)n2nc(-c3ccc(C(C)(C)C)cc3)nc2n1
0.79,i,C[C@]12CC[C@H]3c4ccc(OC(=O)c5ccccc5)cc4CC[C@H]3[C@@H]1CCC2O (stereo partly specified)
0.97,i,CCc1nn2c(=O)c(S(=O)(=O)N3CCN(c4ccccn4)CC3)c(C)nc2s1
2.1,i,CC1CCN(S(=O)(=O)c2cc(C(=O)N3CCN(c4ccc(Cl)cc4)CC3)n(C)c2)CC1
-1.9,i,O=C(O)CC1C(=O)NCCN1Cc1cccnc1 (stereo unspecified)
2.4,i,Cc1ccc(C)c(NC(=O)CCc2nc(CSc3nc(-c4ccccc4)cs3)no2)c1
0.63,i,CN(C)C(=O)c1cccc2c1CCN2C(=O)C1CC1
1.5,i,CCCCC(=O)Nc1cccc(-c2ccc3cc(C(C)C)ccc3n2)c1
-0.7,i,O=C(CCn1nnc2cc(S(=O)(=O)N3CCCC3)ccc21)N1CCN(c2ccccn2)CC1
-0.14,i,O=C(c1nc(-c2ccccc2)n(-c2ccc(Cl)cc2)n1)N1CCCC1
-0.17,i,Cc1ccc(CN2CCN(c3ncnc4c3CCC4)CC2)o1

# Screens (PubChem BioAssay)
